PKD1 kinase inh: inhibitors of human PKD1 kinase; Q15139; PKD1 kinase fluorescence polarization assay; inhibition, %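 (about 10 µM by stock and volumes)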; 200,000 compounds, 0.056% hits; AID 797;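 active = inhibition of 50% or more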;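 note: controls were vehicle for no effect and a reference inhibitor for full effect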
Target sequence (Q15139 whole entry, looked up): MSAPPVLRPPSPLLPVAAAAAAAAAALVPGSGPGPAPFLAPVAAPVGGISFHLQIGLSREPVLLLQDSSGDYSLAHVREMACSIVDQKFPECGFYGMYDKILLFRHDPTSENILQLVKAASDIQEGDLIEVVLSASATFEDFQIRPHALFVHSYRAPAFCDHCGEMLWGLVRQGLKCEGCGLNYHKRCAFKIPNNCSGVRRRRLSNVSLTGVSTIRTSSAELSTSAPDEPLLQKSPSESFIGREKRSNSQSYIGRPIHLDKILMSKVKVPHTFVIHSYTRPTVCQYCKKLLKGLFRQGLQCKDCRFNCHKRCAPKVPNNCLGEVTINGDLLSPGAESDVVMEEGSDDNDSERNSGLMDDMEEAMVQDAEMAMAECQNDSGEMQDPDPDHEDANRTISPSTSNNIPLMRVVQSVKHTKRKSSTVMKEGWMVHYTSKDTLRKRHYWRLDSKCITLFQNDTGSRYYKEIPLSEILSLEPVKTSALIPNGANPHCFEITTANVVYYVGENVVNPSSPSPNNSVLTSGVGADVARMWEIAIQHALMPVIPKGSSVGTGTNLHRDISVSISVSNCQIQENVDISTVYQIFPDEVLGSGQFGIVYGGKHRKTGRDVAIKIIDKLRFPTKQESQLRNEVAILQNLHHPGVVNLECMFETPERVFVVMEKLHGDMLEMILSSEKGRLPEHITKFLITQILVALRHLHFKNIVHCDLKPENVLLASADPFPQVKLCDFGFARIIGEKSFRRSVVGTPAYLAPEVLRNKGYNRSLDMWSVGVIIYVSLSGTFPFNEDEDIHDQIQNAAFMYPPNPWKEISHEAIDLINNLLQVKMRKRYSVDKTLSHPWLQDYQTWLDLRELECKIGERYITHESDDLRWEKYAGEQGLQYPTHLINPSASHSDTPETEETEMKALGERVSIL
RGS16-Gao: regulators of human RGS16-Galphao interaction; bead-based flow cytometry RGS16-Galphao binding, fluorescence; actives lie on both sides; binding response (% of control), % at 10 µM; 220,000 compounds, 0.38% hits;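 active = below 25% or above 175%, edge rows of some plates excepted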;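 note: Galphao activated by GDP with aluminum fluoride before binding; 100% = wells without compound and 0% = beads without RGS; some results beyond the cut were filed as inactive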
Insulin prom inh: TRM-6 insulin promoter activity inhibition | TRM-6 cells (human fetal islet line), insulin promoter-eGFP reporter, imaging; reporter expression induced with tamoxifen | inhibition, % at 2 µM | 130,000 compounds, 0.9% hits | AID 1273;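 active = inhibition above the mean plus 3 SD, with well images judged a real hit on visual review, cut at about 60% in these data, passing the limit was not always enough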
HSV replic up: HSV replication enhancement; HSV replication augmentation in cells, fold increase; maximum fold increase; 220,000 compounds, 0.005% hits; AID 1956;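 active = peak rise of 1.5-fold or more in the series; tested in PC3 cells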;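 note: first round at 10 µM; read as green reporter fluorescence; hits show the peak of a series up to 25 µM; 1 = signal of infected wells without compound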
GALR2 agonist: GALR2 (human) receptor agonism; 140,000 compounds, 0.48% hits; AID 803; GALR2-expressing cells, agonist activation read-out; activation, %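 (tested at 5 µM)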; O43603;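 active = above mean plus 3 SD of all compounds, about 5% in these data, not always enough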;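 note: 0% = vehicle buffer wells and 100% = reference agonist at full effect; tested in CHO reporter cells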
Insulin prom inh cell count: second read-out of Insulin prom inh, no call of its own (marks repeat the call); normalized cell count, %; measured here: cell count, toxicity; reference of the scale not given here;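 cells exposed to compound for 48 h; stained nuclei by imaging scaled within each plate; lower means fewer cells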
HSV replic up primary fold: further read-out of HSV replic up, marked with its call; fold increase; compound at 10 µM; measured here: primary screen fold increase 10 uM; tested in PC3 cells;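 GFP signal in the first replicate; 1 = infected wells without compound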
* = called active by the depositor; i = inactive; . = not tested or not shown.

SMILES	PKD1 kinase inh	RGS16-Gao	Insulin prom inh	Insulin prom inh cell count	HSV replic up	HSV replic up primary fold	GALR2 agonist
CCC(=O)Nc1ccccc1N1CCN(S(C)(=O)=O)CC1	5	98	7	110	i	0.92	-0.8
Cc1nc2ccccn2c1C(=O)N/N=C/c1cc(C)n(-c2ccc(Br)cc2)c1C	-3	102	38	100	i	0.96	-1.4
CC(C)CC(c1nnnn1C(C)C)N1CCN(c2ccccc2)CC1 (stereo unspecified)	-2	94	3	106	i	0.97	-3.7
O=C(C1CCN(S(=O)(=O)N2CCOCC2)CC1)N1CCN(Cc2ccccc2)CC1	-2	105	7	101	i	0.99	-2.6
COc1ccc([N+](=O)[O-])c(OC)c1C(=O)NC(=O)Nc1nc(C)cc(C)n1	.	116	.	.	i	1	.
C=CCc1c(C)nc(SCc2nc3ccccc3c(=O)[nH]2)[nH]c1=O	-14	85	17	97	i	0.95	-2.1
CCO[C@@H]1OC(C(=O)NC2CC2)=C[C@H](c2ccccc2)[C@H]1CCCO	-4	102	.	.	i	0.8	.
COc1ccc(NC(=O)c2cccc(NC(=O)c3ccco3)c2)c(OC)c1	1	79	.	.	i	0.78	-0.4
COc1ccc2c(c1)C1C=CCC1C(c1cc3c(cc1Br)OCO3)N2 (stereo unspecified)	-7	102	29	124	i	1.1	-1.7
Cc1[nH]ccc(=O)c1OCc1c(Cl)cccc1Cl	-12	108	-25	101	i	1	-1.1
CN1CCN(C(=O)c2ccc(C3SCC(=O)N3Cc3ccco3)cc2)CC1 (stereo unspecified)	8	83	-17	148	i	1	-1.3
CS(=O)(=O)Nc1ccc(C2=NN(S(C)(=O)=O)C(c3ccccc3)C2)cc1 (stereo unspecified)	-9	103	.	.	i	1	0.2
O=C(COc1ccccc1)NCCc1cn2ccsc2n1	4	100	.	.	i	0.98	-2.6
COC(=O)c1cn(Cc2ccccn2)c(=O)c2ccccc12	-6	103	.	.	i	0.72	.
Cc1ccnc(NC(=O)CSc2nnc3c(n2)[nH]c2ccccc23)c1	-5	103	.	.	i	0.86	.
CCN1C(=O)N/C(=C/c2ccc(Sc3ccc(C)cc3)o2)C1=O	-9	103	23	211	i	1	0.8
COCc1cc(C)nc(OCC(=O)N/N=C/c2cccc(OC)c2)c1C#N	-3	96	-14	54	i	0.99	0.2
Cn1c(=O)c2c(nc(N3CCCCCC3)n2CC(O)COc2ccccc2)n(C)c1=O (stereo unspecified)	-3	102	3	100	i	0.95	-2.2
COc1cc(C(=S)N2CCN(C)CC2)ccc1OCC(=O)NCc1ccccc1	7	99	-25	105	i	0.95	.
CC(=O)Nc1ccccc1-c1nc2ccccc2nc1OCC(=O)c1ccc(Cl)cc1	0	105	.	.	i	1.1	2.0

Reformatted: entries from further up
SMILES | PKD1 kinase inh | RGS16-Gao | Insulin prom inh | Insulin prom inh cell count | HSV replic up | HSV replic up primary fold | GALR2 agonist
Cc1nc2ccccn2c1C(=O)N/N=C/c1cc(C)n(-c2ccc(Br)cc2)c1C | -3 | 102 | 38 | 100 | i | 0.96 | -1.4
CC(C)CC(c1nnnn1C(C)C)N1CCN(c2ccccc2)CC1 (stereo unspecified) | -2 | 94 | 3 | 106 | i | 0.97 | -3.7

Going on with the list.
SMILES	PKD1 kinase inh	RGS16-Gao	Insulin prom inh	Insulin prom inh cell count	HSV replic up	HSV replic up primary fold	GALR2 agonist
CCOC(=O)N1CCN(Cc2cc(=O)oc3cc4c(cc23)CCC4)CC1	2	102	-21	116	i	0.99	-1.4
COCCN(CC(=O)NC1CCCCC1)C(=O)CCCC(=O)Nc1ccccn1	-2	122	.	.	i	1	.
O=C(Nc1ccc2c(c1)OCO2)Nc1ccc2c(c1)OCO2	-6	99	.	.	i	0.85	.
Cc1ccc(-c2cc3nc(-c4ccccc4)cc(N)n3n2)cc1	1	118	12	85	i	1.1	-1.1
CCc1ccc(C2CC(c3ccc(C)cc3)Nc3nc(N)nn32)cc1 (stereo unspecified)	-11	102	.	.	i	0.94	0.2
Cc1cc(-c2ccccc2)nc(N/N=C/c2ccco2)n1	-6	77	.	.	i	0.71	-0.9
CCOC(=O)c1c(C)c(C(=O)NCCN2CCOCC2)c(C)n1CC	22	152	.	.	i	0.87	-2.4
CC(C)C(NC(=O)OCc1ccccc1)C(=O)NC1CCCCC1 (stereo unspecified)	-4	99	-79	84	i	1.1	-0.9
CC(C)(C)c1ccc(C(=O)N/C(=C/c2cccs2)C(=O)NCc2ccco2)cc1	-7	103	37	139	i	1	0.2
Cc1ccc(NC(=O)O/N=C/c2cccc([N+](=O)[O-])c2)cc1	7	100	.	.	i	0.94	.
COc1cccc(C(=O)N(Cc2ccc(N(C)C)cc2)C2CCS(=O)(=O)C2)c1 (stereo unspecified)	-9	108	-73	149	i	0.97	-1.4
O=C(NN1CCOCC1)c1cccc(COc2cccc(Br)c2)c1	-2	105	.	.	i	0.97	.
CCCCCCCOc1ccc(OC(=O)c2cccnc2)cc1	-1	98	7	59	i	0.73	-0.7
O=C(CN1C(=O)CSC1=O)Nc1ccc(C(=O)O)cc1	-8	98	.	.	i	0.96	-4.5
CCOC(=O)N1CCN(C(=O)CSc2ccc(-c3cccc(OC)c3)nn2)CC1	-7	101	8	84	.	.	.
Cc1cc(C(=O)NCc2ccc(S(N)(=O)=O)cc2)ccc1[N+](=O)[O-]	-10	103	-12	60	i	0.95	-1.4
Cc1nc(-c2ccccn2)sc1C(=O)O	-4	99	.	.	i	1.1	.
COCCn1c(=O)[nH]c2cc(C(=O)NCCN3CCN(c4ccccc4F)CC3)ccc2c1=O	-8	102	.	.	i	0.98	-2.1
Cc1[nH]n(-c2cccc(Cl)c2)c(=O)c1/C=N/n1c(C)nc2ccccc2c1=O	-1	97	26	174	i	1.1	-1.2
Cc1onc(-c2c(F)cccc2Cl)c1C(=O)Nc1nc2ccccc2[nH]1	-4	103	-13	104	i	0.92	-3.9
Cc1ccc(OCC(=O)NNC(=O)C(C)Sc2ncnc3sc(C)c(C)c23)cc1 (stereo unspecified)	4	98	-44	81	i	0.84	-4.1
N#CC1=C2SCN(Cc3ccco3)CN2C(=O)CC1c1ccccc1F (stereo unspecified)	-2	73	-14	124	i	1.1	-1.3
COc1cccc(-c2csc(N3CCN(C(=S)Nc4ccccc4C)CC3)n2)c1	-7	103	-12	53	i	0.92	.
CC(C)(C)NCc1cc(Br)ccc1OC1CCCC1	0	101	.	.	i	0.79	.
O=C(Nc1ccc2[nH]ccc2c1)c1ccc(F)cc1	.	104	.	.	i	0.87	.
COC(=O)CSc1ncnc2c1cnn2Cc1ccccc1	8	105	.	.	i	1	-2.7
O=S1(=O)c2ccccc2N=NN1Cc1ccc(Cl)c(Cl)c1	0	66	.	.	i	0.94	-1.4
Cc1occc1C(=O)Nc1sc2c(c1C(N)=O)CCC(C(C)(C)C)C2 (stereo unspecified)	-8	91	-7	141	i	0.9	-0.4
CCc1ccccc1NC(=O)N1C2CCCC1CC(NC(C)=O)C2 (stereo unspecified)	0	105	.	.	i	0.89	-1.3
Cc1ccc(-c2nn(-c3ccccc3)cc2CSC(=N)N)cc1	-10	102	58	115	i	0.38	-0.7
CN1C(C(=O)NCc2cccc(C(F)(F)F)c2)CC2Cn3c(nc4cc5ccccc5cc43)C21 (stereo unspecified)	.	108	.	.	i	0.94	.
CCN1CCC(=NNC(=O)c2ccco2)CC1	4	124	11	139	i	0.85	-1.5
O=[N+]([O-])c1cccc(/C=C/c2nc3ccc([N+](=O)[O-])cc3[nH]2)c1	9	101	.	.	i	0.82	-2.2
c1ccn(-c2ccc(N3CCOCC3)cc2)c1	-5	163	62	95	.	.	-1.7
COC(=O)CN1C(=S)N(C)C(=O)C1CC(=O)Nc1ccccc1 (stereo unspecified)	-11	116	-43	108	i	0.94	-0.2
CCOC(=O)N1CCN(C(=O)CN(C2CCCCC2)S(=O)(=O)c2ccc(F)cc2)CC1	-6	103	3	95	i	0.81	-1.8
O=C(O)CN1CCN(Cc2ccccc2Cl)C1=O	1	.	44	90	i	1	1.7
CCS(=O)(=O)N1CCN(C(=O)c2cccc(OC)c2)CC1	2	114	3	104	i	0.93	-1.8
CC(C(=O)NC1CCCc2ccccc21)N1CCN(c2ccc(F)cc2)CC1 (stereo unspecified)	2	100	.	.	i	1	-1.1
CC(=O)c1cccc(N(CC(=O)N2CCCC2)S(C)(=O)=O)c1	3	104	52	157	i	0.87	-1.1

7 structures out of the list, arranged by molar mass, lowest first:
SMILES	PKD1 kinase inh	RGS16-Gao	Insulin prom inh	Insulin prom inh cell count	HSV replic up	HSV replic up primary fold	GALR2 agonist
CCN1CCC(=NNC(=O)c2ccco2)CC1	4	124	11	139	i	0.85	-1.5
COC(=O)CSc1ncnc2c1cnn2Cc1ccccc1	8	105	.	.	i	1	-2.7
CC(=O)c1cccc(N(CC(=O)N2CCCC2)S(C)(=O)=O)c1	3	104	52	157	i	0.87	-1.1
CC(C)(C)NCc1cc(Br)ccc1OC1CCCC1	0	101	.	.	i	0.79	.
COC(=O)CN1C(=S)N(C)C(=O)C1CC(=O)Nc1ccccc1 (stereo unspecified)	-11	116	-43	108	i	0.94	-0.2
Cc1occc1C(=O)Nc1sc2c(c1C(N)=O)CCC(C(C)(C)C)C2 (stereo unspecified)	-8	91	-7	141	i	0.9	-0.4
COc1cccc(-c2csc(N3CCN(C(=S)Nc4ccccc4C)CC3)n2)c1	-7	103	-12	53	i	0.92	.

The list goes on.
SMILES	PKD1 kinase inh	RGS16-Gao	Insulin prom inh	Insulin prom inh cell count	HSV replic up	HSV replic up primary fold	GALR2 agonist
Cc1cc(OCCN2CC(C)OC(C)C2)ccc1[N+](=O)[O-] (stereo unspecified)	15	99	-31	146	i	1	-1.4
Cc1ccccc1-c1ccc(C(=O)Nc2cccc(F)c2)o1	-8	105	9	73	i	0.81	-2.2
CC(=O)N1CCc2cc(S(=O)(=O)NCCN3CCC(C)CC3)ccc21	-3	91	-48	96	i	1	-0.7
CC(C)(C)P(=O)(CO)c1ccccc1 (stereo unspecified)	-6	251	-12	82	i	0.95	-0.1
COC(=O)c1ccc(Sc2ccccc2NS(=O)(=O)c2ccc(OC)cc2)nc1	-6	102	-42	139	i	1.1	-2.1
CN(C)c1nc(N)nc(CSc2nnnn2-c2ccc(F)cc2)n1	2	102	-8	77	i	0.87	-0.1
COc1ccc(OCC(O)CNC(=O)c2ccccc2C(=O)O)cc1 (stereo unspecified)	-2	97	44	87	i	0.98	-1.6
Cn1c(CNC(=O)c2ccco2)nnc1SCC(=O)N1c2ccccc2Sc2ccccc21	-6	102	-32	91	i	0.77	0.0
Cc1ccc(N/C(CSC(N)=O)=N\S(=O)(=O)c2ccc(C)cc2)cc1	-4	90	0	100	i	0.78	-1.5
COc1ccc(S(=O)(=O)N(C)CC(=O)N2CCN(C)CC2)cc1C	-6	99	-1	59	i	0.71	-3.4
O=C(CNC(=O)COc1ccccc1)NCc1ccccc1F	1	107	.	.	i	0.87	-2.1
CCOc1cc(C(=O)CCC(=O)OCC(=O)Nc2ccc(C)c(S(=O)(=O)N(C)C)c2)ccc1O	-4	96	.	.	i	0.92	.
COc1ccc(N(C)C(=O)CC2(CC(=O)O)CCCCC2)cc1	8	103	.	.	i	0.98	-1.2
Cc1occc1C(=O)Nc1cc(=O)n(C)c(=O)n1C	-2	115	62	115	i	0.96	0.0
CCOC(=O)CCSc1nnc(-c2cccnc2)n1-c1ccccc1OC	-2	107	-14	158	i	1	-1.2
CC(=O)N/C(=C\c1ccc(Cl)cc1)C(=O)O	.	94	.	.	i	1.1	.
N#Cc1cc2c(nc1SCC(=O)Nc1sc3c(c1C#N)CCC3)CCCCC2	-3	95	-24	103	i	0.92	-0.8
CCN1C(=O)C(CC(=O)Nc2ccc(OC)cc2)N(CCN2CCOCC2)C1=S (stereo unspecified)	.	103	.	.	i	0.86	.
C=CCn1c(SC)nnc1-c1ccc2ncccc2c1	.	106	.	.	i	0.72	.
Cc1cccc(N(C(=O)c2csnn2)C(C(=O)NC(C)(C)C)c2cccs2)c1 (stereo unspecified)	1	103	-7	76	i	0.9	-2.9
COC(=O)c1cc(COC(=O)c2nc3nccc(C)n3n2)oc1C	1	90	0	143	i	0.98	.
Cc1c(Cl)cccc1NC(=O)CN1CCC(NC(=O)C2CCCCC2)CC1	-4	87	2	89	i	0.94	0.7
CC(C)N(Cc1cn(C)nc1-c1cccc(Cl)c1)Cc1nccn1C	3	94	.	.	i	0.83	.
CCn1nnnc1-c1ccc(OC)c(S(=O)(=O)NCCc2ccccc2)c1	-7	98	26	99	i	0.73	-0.9
Cc1ccccc1C(=O)NC(NC(=S)Nc1ccc(S(N)(=O)=O)cc1)C(Cl)(Cl)Cl (stereo unspecified)	-9	76	-9	48	i	1	-1.5
CN(CC(=O)Nc1ccc(Cl)cc1)CC(=O)Nc1ccc(C(N)=O)cc1	2	99	.	.	i	0.96	.

Screens as filed in PubChem BioAssay.
